# Bioassay records as filed in PubChem BioAssay.
# GLA inh pH 4.5 – qHTS Assay for Inhibitors of Human alpha-Galactosidase at pH 4.5; Alpha-galactosidase A (Homo sapiens), P06280; purified enzyme, 4-MU-alpha-Gal fluorescence, pH 4.5; activity change, negative = inhibition, % at 105 µM; 230,000 tested, under 10 active; inconclusive = small, poorly fitted or top-dose-only inhibition, or a rising curve; inactive = flat fitted curve, though single readings scatter; no compound was filed as active;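 also: 0% = full activity with enzyme and -100% = basal without enzyme; dose as in the result columns while the protocol names 77 µM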
# Rango release inh – qHTS Assay for Inhibitors of RanGTP induced Rango (Ran-regulated importin-beta cargo) - Importin beta complex dissociation; Snurportin-1 (Homo sapiens) + GTP-binding nuclear protein Ran (Homo sapiens) + Importin …; Biochemical FRET Rango-importin beta, RanGTP-induced dissociation; actives 0.071% (n = 340,000); Potency, µM (series often up to 46.1 µM), without a hit: at the highest dose activity change, negative = inhibition; active means falling FRET ratio curve, often poorly fitted, with flat reads before Ran was added; inconclusive means other falling curves, or compound fluorescence or quenching; inactive means flat or rising ratio curve;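 also: potency is read from the fitted curve at half-maximal effect; % of control where 0% means no effect; nearly all actives have a fitted effect of over 45% in size; -100% = wells without RanGTP and RCC1; the record marks most hits as doubtful in a second field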
#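 Rango (0.1 uM)–importin beta (0.25 uM) complex; RanGTP-RCC1 trigger; 45 min RT; CFP/YFP FRET read.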
# miR-21 reporter – qHTS Assay for Modulators of miRNAs and/orActivators of miR-21; HeLa miR-21 FLuc reporter, luciferase, 48 h; Potency, µM (series often up to 38.3 µM), inactives show at the highest dose reporter change, positive = more light; 340,000 tested, under 10 active; AID 2288, 2010; active = well fitted rising curve with a large enough effect; inconclusive = small, poorly fitted or top-dose-only effect; inactive = no such curve, though single readings can be large or run the other way;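 also: % of control where 0% means no effect; miR-21 action dims this reporter so a rising signal means less miR-21 action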
#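 HeLa cells endogenously expressing miR-21, stably carrying CMV-driven firefly luciferase with a downstream miR-21 binding site, 2000 cells/well. Titrations up to approximately 40 uM, 48 hours; luciferase luminescence read.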
# Rango-impB inh – qHTS Assay for Inhibitors of Rango (Ran-regulated importin-beta cargo) - Importin beta complex formation; Importin subunit beta-1 (Homo sapiens), Q14974; Rango CFP/YFP FRET sensor + importin beta, 45 min; Potency, µM (titrated, usually from 92.2 µM), inactives show at the highest dose inhibition of complex formation; actives 0.031% (n = 340,000); active = rising FRET ratio curve, often small or poorly fitted; inconclusive = mostly compound fluorescence or quenching in the first reads; inactive = flat curves in all reads;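 also: potency is read from the fitted curve at half-maximal effect; 0% = DMSO wells and 100% = buffer wells lacking importin beta; nearly all actives have a fitted effect of over 15% in size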
# Target sequence (Q14974 whole entry, looked up): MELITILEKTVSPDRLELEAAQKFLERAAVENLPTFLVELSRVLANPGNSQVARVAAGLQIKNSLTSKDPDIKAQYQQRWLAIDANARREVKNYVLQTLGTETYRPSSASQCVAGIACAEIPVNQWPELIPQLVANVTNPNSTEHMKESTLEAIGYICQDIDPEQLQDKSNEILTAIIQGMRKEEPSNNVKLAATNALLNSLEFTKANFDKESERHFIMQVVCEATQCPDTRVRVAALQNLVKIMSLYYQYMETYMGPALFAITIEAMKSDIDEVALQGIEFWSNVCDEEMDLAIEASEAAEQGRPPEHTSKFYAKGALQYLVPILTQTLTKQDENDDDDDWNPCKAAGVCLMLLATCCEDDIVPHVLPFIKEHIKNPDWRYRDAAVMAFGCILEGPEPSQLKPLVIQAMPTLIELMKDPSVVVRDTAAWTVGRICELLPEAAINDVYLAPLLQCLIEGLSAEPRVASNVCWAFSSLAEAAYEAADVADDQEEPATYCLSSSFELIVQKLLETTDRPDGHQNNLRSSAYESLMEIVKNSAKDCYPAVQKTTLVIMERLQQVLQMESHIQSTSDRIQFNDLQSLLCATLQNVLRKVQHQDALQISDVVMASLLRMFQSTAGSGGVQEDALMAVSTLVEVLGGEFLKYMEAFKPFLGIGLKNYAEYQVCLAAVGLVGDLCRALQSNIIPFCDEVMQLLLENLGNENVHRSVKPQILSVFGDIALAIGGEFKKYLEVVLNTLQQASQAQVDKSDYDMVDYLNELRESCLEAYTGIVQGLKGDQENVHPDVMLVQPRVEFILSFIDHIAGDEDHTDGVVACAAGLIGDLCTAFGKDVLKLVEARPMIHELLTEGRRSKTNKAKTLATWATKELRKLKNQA
#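 FRET biosensor (snurportin 1 IBB flanked by EYFP and cerulean), 50 nM, with compound 5 min, then 0.125 microM importin beta in PBS, 1 mM DTT, 0.02% Tween-20, 0.1% BSA. CFP/YFP ratio read after 45 min at room temperature; pre-read flags interference.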
# Starred values were filed as active, the others as inactive; ? = inconclusive; · = no result given; & = joins results of further samples.
# Start of the listing, in advance, 2 compounds:
Compound,GLA inh pH 4.5,Rango release inh,miR-21 reporter,Rango-impB inh
O=C(NNC(=O)c1cccs1)c1ccc(Cl)cc1,1.8,14.2%,-42.5%,-1.6%
Cn1ccnc1SC(C(=O)O)c1ccccc1 (centres undefined),·,-2.4%,-2.0%,-0.4%

# The whole of this part (from the top)
Compound,GLA inh pH 4.5,Rango release inh,miR-21 reporter,Rango-impB inh
O=C(NNC(=O)c1cccs1)c1ccc(Cl)cc1,1.8,14.2%,-42.5%,-1.6%
Cn1ccnc1SC(C(=O)O)c1ccccc1 (centres undefined),·,-2.4%,-2.0%,-0.4%
Cc1ccc(NC(=O)Cn2c(=O)n(Cc3ccco3)c(=O)c3ccccc32)c(C)c1,-3.9,?,-14.6%&-4.8%,-3.2%
CC1CN(c2nc3ccccc3nc2SCC(=O)Nc2ccc(F)cc2)CC(C)O1 (centres undefined),·,-17.7%,15.7%,1.2%
OCC1(CCCc2ccccc2)CCN(Cc2cnc(N3CCOCC3)s2)CC1,-1.3,1.5%,2.1%,1.3%
O=S(=O)(c1cccc(-c2cn3ccccc3n2)c1)N1CCCC1,·,?,4.3%,0.7%
CCC(NC(=O)c1oc2ccccc2c1COC)c1ccc(OC)cc1 (centres undefined),·,-9.5%,-0.2%,0.0%
O=C(NCc1ccccc1)C1CCN(S(=O)(=O)N2CCCCCC2)CC1,5.6,-13.7%,-13.5%,4.3%
CNC(=O)C(=O)Nc1cc2c3c(c1)CCN3C(=O)CC2,·,-6.1%,7.3%,-1.7%
Fc1ccccc1-c1n[nH]c(=S)n1/N=C/c1c[nH]c2ccccc12,-4.8,12.3%,13.7%,3.5%
O/N=C1/CCCSc2ccccc21,1.6,2.6%,-7.4%,-2.2%
C/C(=N\NC(=O)c1cccnc1)c1ccc(Br)cc1,·,4.3%,-11.4%,-2.3%
O=c1cnnc(NCc2ccccc2)[nH]1,0.0,-21.5%,-3.5%,0.7%
COc1ccc(-c2nn(-c3ccccc3)cc2C(=O)NC(=S)N2CCOCC2)cc1OC,·,1.2%,·,-0.8%
COc1cccc2c(=O)cc(C)n(CC(=O)Nc3cccc(C)c3)c12,-1.9,-17.2%,15.3%,-2.1%
CCc1cc(C(=O)N2CCN(S(=O)(=O)c3ccccc3F)CC2)sc1C,·,-17.5%,·,2.4%
Cc1ccc(S(=O)(=O)N(C)C)cc1NC(=O)c1cc(=O)c2ccccc2o1,·,14.8%,-1.8%,5.9%
NC(=O)N/N=C/c1c(F)cccc1F,4.0,-6.0%,-2.5%,-2.0%
CC(=O)N1CCC(N(CCN2CCOCC2)C(=S)Nc2cc(C)ccc2C)CC1,6.4,9.9%,-4.1%,-2.8%
COCCN(Cc1ccccc1)C(=O)c1cc(-c2ccc(OC)c(OC)c2)nc2ccccc12,·,0.4%,5.3%,5.8%
CCN(CC)S(=O)(=O)c1ccc2oc(Nc3ccc(OC)cc3)nc2c1,·,-1.2%,-16.0%,-2.0%
CCCCNc1n[n+](C)c(-c2cccc(C)c2)s1,-0.6,·,-6.0%,·
COc1ccc(OC)c(N(CC(=O)Nc2ccc(NC(C)=O)cc2)S(C)(=O)=O)c1,-2.6,-9.9%,-8.1%,1.8%
CC1CCCCC1NC(=O)/C(C#N)=C/C=C/c1ccccc1[N+](=O)[O-] (centres undefined),2.3,0.3%,?,-1.9%
N=c1c(C(=O)NC2CCCC2)cc2c(=O)n3ccccc3nc2n1CCCN1CCOCC1,·,?,-2.2%,?

# Ordered by heavy-atom count (low to high): some entries from above.
Compound,GLA inh pH 4.5,Rango release inh,miR-21 reporter,Rango-impB inh
O/N=C1/CCCSc2ccccc21,1.6,2.6%,-7.4%,-2.2%
O=c1cnnc(NCc2ccccc2)[nH]1,0.0,-21.5%,-3.5%,0.7%
Cn1ccnc1SC(C(=O)O)c1ccccc1 (centres undefined),·,-2.4%,-2.0%,-0.4%
CCCCNc1n[n+](C)c(-c2cccc(C)c2)s1,-0.6,·,-6.0%,·
C/C(=N\NC(=O)c1cccnc1)c1ccc(Br)cc1,·,4.3%,-11.4%,-2.3%
CNC(=O)C(=O)Nc1cc2c3c(c1)CCN3C(=O)CC2,·,-6.1%,7.3%,-1.7%
O=S(=O)(c1cccc(-c2cn3ccccc3n2)c1)N1CCCC1,·,?,4.3%,0.7%
CCN(CC)S(=O)(=O)c1ccc2oc(Nc3ccc(OC)cc3)nc2c1,·,-1.2%,-16.0%,-2.0%
Cc1ccc(S(=O)(=O)N(C)C)cc1NC(=O)c1cc(=O)c2ccccc2o1,·,14.8%,-1.8%,5.9%
COc1ccc(OC)c(N(CC(=O)Nc2ccc(NC(C)=O)cc2)S(C)(=O)=O)c1,-2.6,-9.9%,-8.1%,1.8%
N=c1c(C(=O)NC2CCCC2)cc2c(=O)n3ccccc3nc2n1CCCN1CCOCC1,·,?,-2.2%,?
COCCN(Cc1ccccc1)C(=O)c1cc(-c2ccc(OC)c(OC)c2)nc2ccccc12,·,0.4%,5.3%,5.8%

# Other compounds:
Compound,GLA inh pH 4.5,Rango release inh,miR-21 reporter,Rango-impB inh
CC(=O)/C=C1\N(C)c2ccc(C)cc2C1(C)C,-6.1,9.4%,-3.7%,2.0%
Cc1ccc2nc(Nc3ccc4[nH]c(=O)[nH]c4c3)c(-n3nc(C)cc3C)nc2c1,1.5,-13.7%,-28.4%,?
CCc1ccc(N(CC(=O)NC(C)(C)CC)C(=O)CCC(=O)Nc2nccs2)cc1,·,-13.4%,-0.8%,-0.2%
Cc1ccc(CCNC(=O)CCn2c(=O)c3cccn3c3ccc(F)cc32)cc1,·,-12.5%,-22.6%&-0.4%,-1.0%
CCOC(CNc1ncnc2c1cnn2C)OCC,8.6,0.4%,-4.7%,-4.9%
O=c1[nH]c(CN2CCN(C/C=C/c3ccccc3)CC2)nc2ccccc12,-6.9,-15.8%,-6.7%,-2.8%
O=C(O)CCNc1ccc(NCCC(=O)O)c2c1C(=O)c1ccccc1C2=O,·,-0.7%,16.5%,?
Cc1ccccc1OCCC(=O)NNC(=O)c1ccccc1F,·,15.9%,·,-0.3%
COc1ccc(-c2cc(-c3ccc(OC)cc3)nc(-c3ccc4c(c3)NC(=O)CO4)c2)cc1,1.7,-1.8%,-3.7%,0.0%
O=C(CC(Sc1n[nH]c(-c2ccccc2)n1)c1ccccc1)NCc1ccccc1 (centres undefined),6.0,5.2%,-1.9%,-6.1%
CC(C)(C)NCC(O)COc1ccc(Br)cc1 (centres undefined),-0.3,-11.2%,-14.6%,-0.4%
CCC(=O)N1CCc2cc(S(=O)(=O)CCC(=O)NCc3cccc(OC)c3)ccc21,·,-8.7%,-4.9%&1.2%,?
Cc1cccc(N2CCN(C(=O)c3ccc(-n4cncn4)c([N+](=O)[O-])c3)CC2)c1C,·,-11.7%,3.5%,?
CC(C)(C)NC(=S)NC(=O)C12CC3CCC(CC(C3)C1)C2,5.4,11.1%,2.5%,4.1%
O=C(Nc1cc(Cl)ncn1)c1ccccc1,·,-2.3%,·,4.0%
CC(Cc1ccccc1)NC(=O)c1cc2ccccc2o1 (centres undefined),·,6.7%,-62.1%,-2.4%
CN(CC(=O)N1CCOCC1)S(=O)(=O)c1ccc2ccccc2c1,·,6.2%,-6.4%,-1.1%
O=C(COCc1ccccc1)N[C@@H](Cc1ccc(O)cc1)C(=O)O,0.1,15.7%,0.1%,?
COc1ccc(/C=C2\SC(N)=NC2=O)cc1,·,19.3%,4.5%,8.4%
CCCCCOCC1CC(C/C(C)=N/Nc2nc(-c3ccccc3)cs2)C(=O)O1 (centres undefined),2.9,-3.4%,-23.7%,0.8%
CC(=Nc1ccccc1)C1=C(O)C(Cc2ccccc2)NC1=O (centres undefined),·,-2.8%,·,-4.9%
COc1ccc(OC)c(S(=O)(=O)NCc2cc(-c3ccccc3)no2)c1,·,2.9%,5.6%,-9.1%
COc1ccc(CN(C)C(=O)CCN=C2NS(=O)(=O)c3ccccc32)c(OC)c1,·,7.6%,·,-2.1%
CS(=O)(=O)N(CC(=O)Nc1ccc2c(c1)OCO2)Cc1ccc(Cl)cc1,-2.5,7.1%,-20.4%,-1.1%
CCOc1ccccc1/C=N/NC(=O)c1nnn(-c2nonc2N)c1CN1CCC(C)CC1,·,-14.7%,1.9%,-2.5%

# (continued)
Compound,GLA inh pH 4.5,Rango release inh,miR-21 reporter,Rango-impB inh
COc1ccc(-c2cc(C(F)(F)F)n3nc(C(=O)NCCN4CCOCC4)cc3n2)cc1,17.7,-22.2%,-0.6%,-5.0%
COc1cc(C(C2C(=O)CC(C)(C)CC2=O)C2C(=O)CC(C)(C)CC2=O)cc(OC)c1OC,·,1.4%,1.2%,-1.7%
COCCN(C(=O)CCCC(=O)Nc1ccccn1)C(C(=O)NC1CCCC1)c1ccc(C)cc1 (centres undefined),1.5,2.3%,-1.0%,-0.8%
COc1cc(NS(=O)(=O)c2cc(C(=O)N3CCN(C(C)=O)CC3)ccc2OC)cc(OC)c1,-4.8,-3.9%,-3.4%,0.0%
O=C(Cn1cncn1)c1ccc(Cl)cc1,·,-13.3%,-3.4%,4.8%
CCN(CC(=O)NCCc1ccccc1)S(=O)(=O)c1ccc(C)cc1,-1.2,3.9%,-5.1%,1.3%
c1ccc2sc(NC3=NCN(C4CCCCC4)CN3)nc2c1,-3.8,3.6%,-2.5%,3.2%
O=C(Nc1ccccc1)N1CCC(O)(c2cccc(C(F)(F)F)c2)CC1,·,-19.8%,5.1%,4.1%
Cc1ccc(NC(=O)CNCc2ccccc2Cl)cc1S(=O)(=O)N(C)C,·,9.0%,-32.5%,-1.5%
CC(C)(C)OC(=O)C[C@H]1C/C=C\C[C@@H](CC(=O)N[C@@H](CO)Cc2ccccc2)C(=O)NC[C@@H](c2ccccc2)OC1=O,·,4.3%,·,2.4%
CC(C)NC(=S)N/N=C1\CCCc2ccccc21,0.9,1.9%,-1.5%,6.3%
Cc1ccccc1NC(=O)c1cc(C(=O)c2cc(Cl)ccc2O)cn(-c2ccccc2C)c1=O,-0.8,-15.9%,23.6%,3.8%
CCC/C(=N\NC(=O)C1CCCC1)c1ccccc1,·,0.9%,-11.6%,0.3%
COCCCn1c(=S)[nH]c2sc3c(c2c1=O)CCCS3,-0.9,-1.5%,-37.1%,0.7%
Cc1cc(SCC(=O)c2ccccc2)nc(C)n1,8.8,13.8%,-49.3%,11.9%
O=C(CNC(=O)c1cccs1)N/N=C/c1cccc(Cl)c1,·,1.0%,-15.5%,3.0%
O=C(COC(=O)c1ccccc1[N+](=O)[O-])Nc1cccnc1Cl,·,-0.4%,·,-3.4%
COc1cccc(N2C(=O)Nc3ccc(Br)cc3C2(O)C(=O)NCCCOC(C)C)c1 (centres undefined),·,8.9%,3.2%,2.7%
CCOC(=O)C1C(C(=O)OC)=C(C2=CCCCC2)c2ccccc2N1S(=O)(=O)C(F)(F)F (centres undefined),-11.0,16.8%,·,-0.1%
Cc1ccc(-c2nnc(SCC(=O)N(C)C)nc2-c2ccc(C)cc2)cc1,·,15.1%,-4.5%,6.1%
O=C(Cc1ccccc1F)Nc1ccc(Cl)nc1,-8.8,10.0%,-1.8%,4.9%
Cc1cc(SCc2ccc(Cl)cc2)nc(=O)[nH]1,·,-6.6%,-30.3%,-1.1%
CC(=O)c1cc2c(cc1NC(=O)CN1CCC(Cc3ccccc3)CC1)OCO2,1.8,29.8%,-6.2%,2.0%
COc1cccc(CNC(=O)CCNC(=O)c2ccc(Br)o2)c1,·,-10.3%,1.9%,-5.5%
COc1ccc(-c2cc(C(=O)N3CCN(C(c4ccccc4)c4ccccc4)CC3)no2)cc1,-2.1,-4.7%,2.1%,-0.2%

# These rows are one share of the data; rates above refer to the full screens.
